High-throughput results: PubChem BioAssay, National Center for Advancing Translational Sciences (NCATS)
Rango release inh: prevents RanGTP from dissociating the Rango-importin beta complex; 340,000 tested, 0.071% active; Potency, µM (highest dose often 46.1 µM), without a hit: at the highest dose activity change, negative = inhibition; Biochemical FRET Rango-importin beta, RanGTP-induced dissociation; AID 540253; active means falling FRET ratio curve, often poorly fitted, with flat reads before Ran was added; inconclusive means other falling curves, or compound fluorescence or quenching; inactive means flat or rising ratio curve;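 further: potency means the concentration at half of the fitted maximal effect; % of control where 0% means no effect; nearly all actives have a fitted effect of over 45% in size; -100% = wells without RanGTP and RCC1; the record marks most hits as doubtful in a second field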
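Two FRET readings bracket the reaction: one 5 min after compound meets Rango–importin beta, another 45 min after RanGTP-RCC1 (0.6 uM Ran, 0.2 uM RCC1, 2 mM GTP) is added. Only the second defines inhibition.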
miR-21 FLuc: raises the signal of a miR-21 reporter; HeLa miR-21 FLuc reporter, luciferase, 48 h; Potency, µM (highest dose often 38.3 µM), inactives show at the top dose reporter change, positive = more light; 340,000 tested, under 10 active; AID 2288; active = well fitted rising curve with a large enough effect; inconclusive = small, poorly fitted or top-dose-only effect; inactive = no such curve, though single readings can be large or run the other way;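 further: % of control where 0% means no effect; miR-21 action dims this reporter so a rising signal means less miR-21 action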
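HeLa cells stably expressing CMV-driven firefly luciferase with a downstream miR-21 binding sequence, endogenously expressing miR-21, were treated with titrations (up to about 40uM final) for 48 hours at 37 degree Celsius. Luciferase luminescence was read after lysis.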
GLA inh pH 4.5: alpha-galactosidase A (human) inhibition, pH 4.5; P06280; AID 1467; activity change, negative = inhibition, % at 105 µM; purified enzyme, 4-MU-alpha-Gal fluorescence, pH 4.5; 230,000 tested, under 10 active; inconclusive = small, poorly fitted or top-dose-only inhibition, or a rising curve; inactive = flat fitted curve, though single readings scatter; no compound was filed as active;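 further: 0% = full activity with enzyme and -100% = basal without enzyme; dose as in the result columns while the protocol names 77 µM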
Target sequence (P06280 whole entry, looked up): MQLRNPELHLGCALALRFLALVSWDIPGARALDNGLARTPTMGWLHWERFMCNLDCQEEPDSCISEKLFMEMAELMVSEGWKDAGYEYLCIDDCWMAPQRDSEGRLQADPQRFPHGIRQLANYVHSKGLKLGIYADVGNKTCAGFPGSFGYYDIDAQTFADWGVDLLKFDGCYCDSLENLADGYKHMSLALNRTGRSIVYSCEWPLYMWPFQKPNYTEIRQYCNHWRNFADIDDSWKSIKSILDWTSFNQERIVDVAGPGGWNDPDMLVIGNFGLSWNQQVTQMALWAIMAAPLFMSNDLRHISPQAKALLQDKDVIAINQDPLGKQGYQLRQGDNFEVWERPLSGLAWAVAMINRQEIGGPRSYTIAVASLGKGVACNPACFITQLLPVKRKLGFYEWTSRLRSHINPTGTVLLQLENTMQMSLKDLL
Rango-impB inh: inhibitors of Rango-importin beta complex formation; 340,000 tested, 0.031% active; AID 540263; Q14974; Potency, µM (titrated, usually from 92.2 µM), inactives show at the highest dose inhibition of complex formation; Rango CFP/YFP FRET sensor + importin beta, 45 min; active = rising FRET ratio curve, often small or poorly fitted; inconclusive = mostly compound fluorescence or quenching in the first reads; inactive = flat curves in all reads;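 further: potency means the concentration at half of the fitted maximal effect; 0% = DMSO wells and 100% = buffer wells lacking importin beta; nearly all actives have a fitted effect of over 15% in size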
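FRET biosensor (snurportin 1 IBB flanked by EYFP and cerulean), 50 nM, with compound 5 min, then 0.125 microM importin beta in PBS, 1 mM DTT, 0.02% Tween-20, 0.1% BSA. CFP/YFP ratio read after 45 min at room temperature; pre-read flags interference.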
* = called active by the depositor; u = inconclusive; x = no result given. These rows are one share of the data; the hit share may differ from the screen's.

SMILES	Rango release inh	miR-21 FLuc	GLA inh pH 4.5	Rango-impB inh
Cc1cc(OCC(=O)NCC2CCC(C(=O)O)CC2)c2c(C)c(C)c(=O)oc2c1 (stereo not given)	9%	0%	x	4.2%
C/C(CC(=O)Nc1cccc2c1CCCC2)=N\NC=O	9%	-1%	-2	3.3%
CCOC1CS(=O)(=O)CC1OCC (stereo not given)	-11%	-2%	4	-1.3%
Cc1nn(-c2ccccc2)c2nc(-c3ccncc3)cc(C(=O)NCc3ccco3)c12	9%	-2%	0	-3.5%
Cc1cccc(NS(=O)(=O)c2ccc(C)c(C(=O)NCC(c3ccccc3)N(C)C)c2)c1 (stereo not given)	0%	x	x	-3.8%
O=C(c1ccc2c(=O)n(Cc3ccccc3Cl)c(=S)[nH]c2c1)N1CCOCC1	-20%	3%	x	2.6%
O=C(CN(CC1CCCO1)C(=O)CNS(=O)(=O)c1ccc(Cl)cc1)NCc1ccco1 (stereo not given)	-3%	1%	x	3.0%
O=C(Nc1ccc2c(c1)C(=O)c1ccccc1-2)c1ccccc1	25%	x	x	3.7%
NC1CCCCC1N=Cc1c(O)n(CCc2ccc(F)cc2)c(=O)[nH]c1=O (stereo not given)	2%	-7%	-16	0.1%
COC(=O)CN1C(=O)N/C(=C/c2ccccc2OC)C1=O	1%	-1%	0	6.4%
CC(C)(C)OC(=O)C[C@H]1C/C=C\C[C@H](CC(=O)NCCO)C(=O)NC[C@H](c2ccccc2)OC1=O	4%	x	x	2.2%
COc1ccc(F)c(CN2CCCC(CO)(Cc3cccc(Cl)c3)C2)c1 (stereo not given)	0%	3%	x	-0.7%
CCN(CC)C(=O)c1c2c(nc3ccccc13)-c1ccccc1CC2	-3%	0%	-4	u
Cc1ccc(NC(=S)/C(=C(\[O-])c2ccc(F)cc2)[n+]2ccccc2)cc1	-11%	-16%	2	-6.0%
CC1(c2ccccc2)CCC(=O)NC1 (stereo not given)	-7%	x	x	-0.4%
CN(C)Cc1c(O)ccc2c(-c3ccccc3)cc(=O)oc12	u	-6%	2	u
CC[C@@]1(C(=O)OC)N[C@H](CN(C)C(=O)Nc2ccc(Cl)cc2)[C@@H]2C(=O)N(Cc3ccccc3)C(=O)[C@@H]21	5%	x	x	0.7%
Cc1nc(-n2nnc(CO)c2CO)nc2c1CCC2	4%	1%	u	-5.6%
CC(Nc1ccc2c(c1)OCCO2)C(=O)N1c2ccccc2CC1C (stereo not given)	13%	-11%	-9	-6.1%
CC1CN(C(=O)c2c(Br)cnn2C)CC(C)O1 (stereo not given)	1%	-5%	-4	-0.5%
COc1ccc(-n2ncc3c2CC(C)(C)CC3NC(=O)c2ccoc2C)cc1 (stereo not given)	0%	-2%	x	-1.1%
Cc1ccc(C2c3[nH]c4ccccc4c3C[C@H]3C(=O)N(c4ccccc4C(=O)N4CCC[C@@H]4C(=O)O)C(=O)N23)cc1 (stereo not given in full)	u	1%	x	u
Nc1ncnc2c1cnn2C1CCCCC1	-7%	-23%	-20	0.2%
O=C(COc1ccc(Cl)cc1Cl)N/N=C/CCc1ccccc1	-12%	-3%	-18	4.1%
CC(C)NC(=S)Nc1ccc(Oc2ccccc2)cc1	0%	-7%	-7	-2.0%
CCOC(=O)c1c(NC(=O)c2ccc(C)cc2)sc2c1CC(C)(C)NC2(C)C	x	-1%	1	x
C=CCn1c(NC(=O)c2ccco2)c(S(=O)(=O)c2ccccc2)c2nc3ccccc3nc21	x	1%	22	x
CCN(CC)S(=O)(=O)c1ccc(O)c(NC(=O)COc2ccc(S(=O)(=O)N3CCOCC3)cc2)c1	-6%	x	x	1.7%
O=C(Nc1ccc(Cl)cn1)c1cccc2c(Br)cccc12	0%	6%	x	1.7%
Cc1noc(C)c1COc1cccc(C(=O)Nc2ccccc2)c1	-1%	x	x	2.9%

A section from further up, as a working copy:
SMILES	Rango release inh	miR-21 FLuc	GLA inh pH 4.5	Rango-impB inh
Cc1nc(-n2nnc(CO)c2CO)nc2c1CCC2	4%	1%	u	-5.6%
CC(Nc1ccc2c(c1)OCCO2)C(=O)N1c2ccccc2CC1C (stereo not given)	13%	-11%	-9	-6.1%
CC1CN(C(=O)c2c(Br)cnn2C)CC(C)O1 (stereo not given)	1%	-5%	-4	-0.5%
COc1ccc(-n2ncc3c2CC(C)(C)CC3NC(=O)c2ccoc2C)cc1 (stereo not given)	0%	-2%	x	-1.1%
Cc1ccc(C2c3[nH]c4ccccc4c3C[C@H]3C(=O)N(c4ccccc4C(=O)N4CCC[C@@H]4C(=O)O)C(=O)N23)cc1 (stereo not given in full)	u	1%	x	u
Nc1ncnc2c1cnn2C1CCCCC1	-7%	-23%	-20	0.2%
O=C(COc1ccc(Cl)cc1Cl)N/N=C/CCc1ccccc1	-12%	-3%	-18	4.1%
CC(C)NC(=S)Nc1ccc(Oc2ccccc2)cc1	0%	-7%	-7	-2.0%
CCOC(=O)c1c(NC(=O)c2ccc(C)cc2)sc2c1CC(C)(C)NC2(C)C	x	-1%	1	x
C=CCn1c(NC(=O)c2ccco2)c(S(=O)(=O)c2ccccc2)c2nc3ccccc3nc21	x	1%	22	x
CCN(CC)S(=O)(=O)c1ccc(O)c(NC(=O)COc2ccc(S(=O)(=O)N3CCOCC3)cc2)c1	-6%	x	x	1.7%
O=C(Nc1ccc(Cl)cn1)c1cccc2c(Br)cccc12	0%	6%	x	1.7%
Cc1noc(C)c1COc1cccc(C(=O)Nc2ccccc2)c1	-1%	x	x	2.9%

The results go on:
SMILES	Rango release inh	miR-21 FLuc	GLA inh pH 4.5	Rango-impB inh
Cc1cc(-c2ccc(/C=N/n3cnnc3)o2)ccc1Cl	-9%	-20%	3	6.8%
COc1ccc(C(=Cc2ccccc2[N+](=O)[O-])C(=O)O)cc1	-2%	x	x	4.9%
CC1CCCC(NC(=O)COC(=O)Cc2ccsc2)C1C (stereo not given)	13%	-1%	-2	-1.8%
O=[N+]([O-])c1ccc(Oc2ccc(F)cc2)c2ccncc12	-5%	9%	2	-2.3%
C=C(C)COc1ccc2c(C)c(CCC(=O)NC3CC3)c(=O)oc2c1	1%	-3%	x	-1.8%
COc1ccc2c(c1OC)C(=O)N1C2SC[C@H]1C(=O)NC1CC1 (stereo not given in full)	4%	-5%	x	2.5%
CCc1cccc2c(C(=O)CSc3nncn3-c3ccc(OC)cc3)c[nH]c12	7%	-3%	-15	1.0%
NS(=O)(=O)c1ccc(NC(=O)C2CCCN(S(=O)(=O)c3ccc(F)cc3)C2)cc1 (stereo not given)	-3%	2%	3	6.5%
CC(C)(C)C(=O)CSc1ncnc2sc3c(c12)CCC3	0%	-11%	-1	-1.3%
Cc1nn(C2CCS(=O)(=O)C2)c(Cl)c1/C=C/C(=O)OCC(=O)N(C)C (stereo not given)	3%	0%	0	1.4%
O=S(=O)(c1ccc2ccccc2c1)N1CCN(c2ccc(O)cc2)CC1	2%	x	x	-1.6%
COC(=O)c1ccc2c(c1)c(-c1ccccc1)c(-c1ccccc1)n2C	21%	x	x	0.7%
C=CCn1c(SCC(=O)NC2CCS(=O)(=O)C2)nnc1-c1cc2c(s1)CCC(CC)C2 (stereo not given)	23%	-58%	2	8.3%
COc1ccc(OC)c(/C=N/NC(=O)CCc2ccc(O)c(O)c2)c1	13%	0%	10	-0.3%
CN1C(=O)c2cccc3c(S(=O)(=O)NCCc4ccccc4)ccc1c23	u	1%	x	u
CC12CC3CC1C(C(=O)O2)C3C(=O)O (stereo not given)	6%	x	x	1.1%
Cc1c(C(=O)Nc2ccccc2)sc2nc(-c3ccccc3)cn12	u	-16%	-7	6.6%
CC1Cc2nc(SCC(=O)NCC3CCCO3)n(C)c(=O)c2S1 (stereo not given)	-13%	0%	x	-2.5%
CN(C(=O)CSc1nccc(=O)[nH]1)C1CCCCC1	12%	x	x	8.5%
O=C(N1CCOCC1)N(CCN1CCOCC1)Cc1cccc2ccccc12	-21%	0%	15	-2.1%
CCC12CN(C(=O)c3ccc(OC)cc3)CC(CC)(CN(C(=O)c3ccc(OC)cc3)C1)C2=O	1%	-1%	-6	0.2%
CCCCc1cc(=O)oc2cc(C)cc(OCC(=O)NCc3ccncc3)c12	0%	6%	x	-3.0%
COc1ccccc1N1CCN(C(c2ccc(N(C)C)cc2)c2nnnn2CCc2ccccc2)CC1 (stereo not given)	-8%	-3%	-10	-0.1%
CCOc1ccc(NC(=S)N(CCc2c(C)[nH]c3ccc(C)cc23)Cc2cccnc2)cc1	-16%	-1%	-7	-2.8%
Cc1c(NC(=O)C(C)OC(=O)c2cccc(S(=O)(=O)N3CCOCC3)c2)c(=O)n(-c2ccccc2)n1C (stereo not given)	-17%	-4%	-5	-1.3%
Cc1cc(C(=O)OCC(=O)NCCN2C(=O)CSC2=O)ccc1[N+](=O)[O-]	-12%	x	x	0.6%
Cc1ccc(OCCNC(=O)/C=C/c2ccccc2)cc1C	3%	-6%	-4	-3.8%
C=CCn1c(SCc2cc(=O)n3ccsc3n2)nc2ccccc2c1=O	1%	0%	6	0.6%
COc1ccc(C(=O)C[n+]2cccc3cc(OC)ccc32)cc1	1%	20%	x	u
COc1ccc(OC)c(NC(=O)c2ccc3c(c2)C(=O)N(c2ccc(OC(C)=O)cc2)C3=O)c1	2%	0%	x	-3.2%
CC1Cc2cc(/C(O)=C3/C(=O)C(=O)N(CCCN(C)C)C3c3ccncc3)ccc2O1 (stereo not given)	-9%	1%	-5	0.2%
Cc1ccc(NC(=O)C(C)OC(=O)Cc2c[nH]c3ccccc23)cc1S(=O)(=O)N1CCOCC1 (stereo not given)	-2%	x	x	-0.5%
CSc1nc2nc3c(c(=O)n2[nH]1)CCCC3	-4%	-1%	-2	0.0%
COc1ccc(Cl)cc1C(=O)NNC(=O)C1CCCO1 (stereo not given)	-8%	x	x	-3.4%
CCC1(C)Cc2c(sc3c2c(=O)n(C)c2nnc(SCC(=O)c4ccccc4)n32)CO1 (stereo not given)	15%	x	x	-0.9%
COc1cccc(CN(C)C(=O)CCN=C2NS(=O)(=O)c3ccccc32)c1	4%	x	x	-1.0%
NS(=O)(=O)c1ccc(N2C(=O)C3C4CC(C(Br)C4Br)C3C2=O)cc1 (stereo not given)	8%	-1%	-1	2.2%
COc1ccc(CN2[C@@H](CC(C)=O)c3ccc(/C=C/C(C)=O)cc3S2(=O)=O)cc1	-10%	x	x	-1.1%
NC(=O)C1CCCN(S(=O)(=O)c2ccc3ccccc3c2)C1 (stereo not given)	-14%	-8%	x	0.2%
COc1ccc(CCNC(=O)CCCCCN2C(=O)[C@@H]3Cc4ccccc4CN3C2=O)cc1OC	-7%	2%	x	-2.0%
COc1cccc(NC(=O)CSc2nnc(Cn3nnc4ccccc43)n2C)c1	2%	-6%	-3	-1.2%
Cc1cccc2nc(CNC(=O)CC3C(=O)NCCN3Cc3cccc(F)c3)cn12 (stereo not given)	-5%	2%	x	-5.5%
Cc1ccc(C(C)C)cc1OCC(=O)NNC(=O)Nc1ccccc1	0%	2%	x	-0.3%
CCOc1c(Nc2ccc(C(C)C)cc2)c(=O)c1=O	-9%	0%	-16	0.3%
Cc1ccccc1NC(=O)Nc1nnc(CC(=O)NCc2ccccc2)s1	-3%	-3%	-4	9.4%
O=C(c1cccs1)N(Cc1ccco1)Cc1cc2ccccc2[nH]c1=O	16%	-1%	5	3.7%
COc1cc(C(=S)N2CCCC2)ccc1OCc1ccc(C)cc1	9%	-25%	x	-4.7%
COC(=O)Cn1c(=NC(=O)c2ccc(OC)cc2)sc2cc(OC)ccc21	-8%	-16%	9	2.5%
CC1CCCC(C)N1C(=O)COc1ccc(F)cc1 (stereo not given)	-13%	1%	6	-1.5%
COc1ccc(CNC[C@@H](CCCCN(C)Cc2ccc(OC)cc2)N2C[C@H](c3ccccc3)N(CCc3ccc(Cl)c(Cl)c3)C(=O)C2=O)cc1	-7%	u	-7	5.9%
COc1ccc([N+](=O)[O-])c(OC)c1C(=O)NC(=O)Nc1c(F)c(F)c(F)c(F)c1F	0%	5%	x	-0.2%
